Bioassay records as filed in PubChem BioAssay.
AmpC inh no det: AmpC beta-lactamase inhibition, detergent-free assay; P00811; AmpC nitrocefin hydrolysis, absorbance 480 nm, no detergent; potencies from a single point are estimates; Potency, µM (top dose mostly 28.7 µM), without a hit: at the top dose activity change, negative = inhibition; actives 1.8% (n = 71,000); AID 585; active = falling curve, for most hits resting on a single point; inconclusive = weak or doubtful change; inactive = flat or rising curve; also: % of control where 0% means no effect; about half of the hits show no inhibition at the top dose; a quarter of the inactives give rising signals
Target sequence (P00811 whole entry, looked up): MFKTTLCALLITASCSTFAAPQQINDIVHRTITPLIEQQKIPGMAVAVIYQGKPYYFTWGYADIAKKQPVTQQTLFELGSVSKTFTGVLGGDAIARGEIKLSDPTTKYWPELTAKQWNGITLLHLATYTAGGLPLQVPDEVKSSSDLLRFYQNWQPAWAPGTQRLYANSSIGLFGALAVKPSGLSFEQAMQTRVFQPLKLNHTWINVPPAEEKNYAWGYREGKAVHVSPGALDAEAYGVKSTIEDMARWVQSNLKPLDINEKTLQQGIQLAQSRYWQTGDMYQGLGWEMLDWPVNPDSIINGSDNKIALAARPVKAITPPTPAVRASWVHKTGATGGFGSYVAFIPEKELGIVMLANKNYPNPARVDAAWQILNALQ
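AmpC in 20 mM phosphate buffer pH 7.0 was preincubated 15 min at room temperature with compounds. Nitrocefin (800 uM stock) was then added and hydrolysis followed at 480 nm every 20 s for 4 min.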
The depositor's hits bear a star; ? = inconclusive; [ ] = remark or other dose. Potency is read from the fitted curve at half-maximal effect. A portion of the library. The share of hits here may be higher or lower than overall.

SMILES	AmpC inh no det
COc1ccc([C@@H](C)c2cc3c(cc2O)OCO3)cc1	-6.0%[5.75 µM]
CCN1CCN(CNC(=O)c2cnccn2)CC1	-0.5%
CCc1nc2oc3ccccc3c(=O)c2c(=O)n1CCOC	4.3%
Cc1noc(C)c1COC(=O)Cc1ccc(Cl)cc1	16.1%
O=C(Oc1nsnc1N1CCOCC1)N(c1ccccc1)c1ccccc1	48.6%
OC(CN1CCOCC1)Cn1c(-c2cccc(Cl)c2)nc2ccccc21 (stereo not drawn)	-14.2%
C=CCn1c(=O)c2c(C)c(C)sc2n2c(Nc3ccccc3)nnc12	0.8%
CCOC(=O)C1CCN(CC(=O)c2c(C)[nH]c3ccccc23)CC1	8.7%
COc1cc2nc(C3CCC3)n(NC(=O)C3CCC(OC)CC3)c(=O)c2cc1OC (stereo not drawn)	73.5%
O=C(COC(=O)C12CC3CC(CC(C3)C1)C2)NCc1ccco1	17.9%
CCCOc1ccc(N2C(=O)CC(N3CCC(O)(c4cccc(C(F)(F)F)c4)CC3)C2=O)cc1 (stereo not drawn)	95.4%
CN1CCC(N(C)C(=O)c2ccccc2Nc2ccc(SC(F)F)cc2)CC1	48.9%
CC(=O)Nc1ccc(C(=O)N2CCN(C(=O)c3ccco3)CC2)cc1	-7.6%
O=C1CC(Cc2ccccc2)C(=O)N1CCCn1ccnc1 (stereo not drawn)	-0.3%
CN(C)CCCN=C(N)N	-7.3%[5.75 µM]
O=C(CCCn1c(=S)[nH]c2cc3c(cc2c1=O)OCO3)N1CCN(c2ccccc2)CC1	-0.8%
C[C@]1(C(=O)NCCc2c[nH]c3ccccc23)C=C[C@@H](Cc2ccccc2)N1C(=O)c1ccccc1	52.9%
CC(C)C[C@@H](CC(=O)N[C@@H](CCCN)CC(=O)N[C@@H]1CCNC[C@H]1C(=O)N[C@H](CC(=O)N[C@@H](CCC(=O)O)CC(=O)O)CC(C)C)NC(=O)[C@@H]1CCCC[C@H]1N	106.6%
COc1ccc(OCCSc2nnc(-c3ccoc3C)n2C)cc1	38.9%
COc1ccc(-c2cc(NCCc3ccncc3)n3ncnc3n2)cc1	12.5%
N#CCCn1c(Cl)nc2ccccc21	-6.0%
Cc1ccnc(NS(=O)(=O)c2ccc(N)cc2)n1	-2.1%[12.8 µM]
COc1cc2c(cc1OC)C(C(=O)NCc1ccco1)C(c1cccs1)N(C)C2=O (stereo not drawn)	-2.0%
COc1cc(N2C(=O)NC3CC2(C)Oc2ccc(Br)cc23)cc(OC)c1OC (stereo not drawn)	81.4%

6 structures already listed, arranged by molecular weight, high to low:
SMILES	AmpC inh no det
CC(C)C[C@@H](CC(=O)N[C@@H](CCCN)CC(=O)N[C@@H]1CCNC[C@H]1C(=O)N[C@H](CC(=O)N[C@@H](CCC(=O)O)CC(=O)O)CC(C)C)NC(=O)[C@@H]1CCCC[C@H]1N	106.6%
CC(=O)Nc1ccc(C(=O)N2CCN(C(=O)c3ccco3)CC2)cc1	-7.6%
O=C1CC(Cc2ccccc2)C(=O)N1CCCn1ccnc1 (stereo not drawn)	-0.3%
Cc1ccnc(NS(=O)(=O)c2ccc(N)cc2)n1	-2.1%[12.8 µM]
N#CCCn1c(Cl)nc2ccccc21	-6.0%
CN(C)CCCN=C(N)N	-7.3%[5.75 µM]

The list goes on:
SMILES	AmpC inh no det
CCCC12CN(C(=O)c3ccc(OC)cc3)CC(C)(CN(C(=O)c3ccc(OC)cc3)C1)C2=O	?
Cc1ccc(/C(O)=C2\C(=O)C(=O)N(c3cc(C)on3)C2c2cccc(Br)c2)cc1 (stereo not drawn)	-17.0%
CCOC(=O)N1CCN(c2nc(-c3ccc(F)cc3)cs2)CC1	57.2%
CCN(CC)C(=O)Cn1nnc(-c2ccc(C)o2)n1	6.1%
COC(=O)[C@@]1(Cc2ccc(F)cc2)[C@H]2c3cc(C(=O)N4CCCC4)n(CCc4c[nH]c5cc(F)ccc45)c3C[C@H]2CN1C(=O)c1ccccc1	111.5%
CN1CCC[C@@H]1c1cccnc1	-2.0%
COc1cc(OC)c2c(C)c(Cl)c(=O)oc2c1	-6.0%
Nc1c2c(nc3ccccc13)CCCC2	-13.0%
CCc1cc(-c2n[nH]c(C)c2-c2nc3ccccc3n2C)c(O)c(CN2CCN(C)CC2)c1O	114.6%
COc1ccc2[nH]cc(CCNc3ncncc3-c3ccccc3CN(C)C)c2c1	15.0%
O=S(=O)(c1cccc(-c2cn3cccnc3n2)c1)N1CCCCCC1	14.0%
COC(=O)c1ccc(CSc2nc3c(cnn3-c3ccc(C)c(C)c3)c(=O)[nH]2)o1	-11.2%
COc1ccc(-c2coc3c(CN4CCCCC4)c(O)c(CN4CCCCC4)c(O)c3c2=O)cc1	35.0%
COc1ccccc1Oc1c(C)oc2c(CN3CCN(C)CC3)c(O)ccc2c1=O	-18.8%
Cc1ccccc1Nc1nc(CSc2nnc(-c3ccoc3C)n2C)cs1	25.5%
COc1ccc(OCCC(=O)Nc2cc(C)on2)cc1	-1.4%
CC(C)N(Cc1nc(-c2ccccc2)no1)C(=O)CSc1ccccc1	37.9%
CCOCCn1c(N2CCN(c3ccc(OC)cc3)CC2)nc2c1c(=O)[nH]c(=O)n2C	57.7%
CCc1c(C(=O)NCc2cnn(C)c2)csc1C	-2.8%
COc1ccccc1CNC(=O)C1CCN(S(=O)(=O)N2CCCCC2)CC1	19.0%
C=CCNC(=O)c1ccc(C)c(Br)c1	-3.2%
Cc1n[nH]c(C)c1N1C(=O)c2cccc3c(N4CCCCCC4)ccc(c23)C1=O	136.9%
Cc1ccc2c(c1)c1c(n2CC(O)Cn2c(C)nc3ccccc32)C(=O)CCC1 (stereo not drawn)	49.5%
CCOC(=O)c1ccc(CNC(=O)Cn2nnc(-c3ccc(C)cc3)n2)o1	8.1%
COc1ccc(OC)c(CN2CCN(C(=O)COc3cccc(C)c3)CC2)c1	111.1%
CCC(CC)NCc1ccc(OC)cc1OC	-5.9%
COc1c2c(nc3ccccc13)OC(C(C)(O)COC(C)=O)C2 (stereo not drawn)	16.0%
CCN1CCCC1Cn1cnc2c([nH]c3cccc(Cl)c32)c1=O (stereo not drawn)	2.0%
C=CCn1c(NCCO)nc2c1c(=O)n(C)c(=O)n2C	-2.2%
Cc1sc(NC(=O)c2ccco2)c(C(c2cccnc2)N2CCN(c3ccc(F)cc3)CC2)c1C (stereo not drawn)	70.7%
O=C(Nc1ccc(OC(=O)c2ccco2)cc1)c1ccco1	-5.8%
COc1cccc(-n2c(SCC(N)=O)nc3c([nH]c4ccccc43)c2=O)c1	-16.2%
CC1(C)CC(=O)C2=C(C1)N(Cc1ccco1)C(=O)NC2(C(F)(F)F)C(F)(F)F	-8.7%
COC(=O)c1nc2n(n1)C(c1cc(OC)ccc1OC)C(C(=O)OC1CCCCC1)=C(C)N2 (stereo not drawn)	113.7%
c1ccc(N2CCN(CCCOc3ccc4c(c3)OCO4)CC2)cc1	26.2%
OCCBr	-0.5%
O=C(NCC(c1cccnc1)N1CCN(c2ccc(F)cc2)CC1)c1ccc2c(c1)OCO2 (stereo not drawn)	57.8%
Cn1c(=O)oc2cc(S(=O)(=O)NCCN3CCc4ccccc4C3)ccc21	22.5%
C=CCOc1ccc(CNc2nn[nH]n2)cc1	-15.7%
Cc1cccc(Nc2ncc3c(n2)CC(c2ccco2)CC3=O)c1 (stereo not drawn)	15.6%
COc1ccccc1-n1cc(C(=O)NCC(=O)N2CCN(c3ccccc3)CC2)c2ccccc2c1=O	82.0%
O=C(Cn1cnc2c(oc3ccccc32)c1=O)NCCc1ccccc1	-4.8%
Clc1ccc(Nc2ncnc3c2cnn3-c2ccccc2)cc1	-4.3%
Cn1c(=O)n(Cc2ccccc2)c(=O)c2c1nc1n2CCCN1C1CCCCC1	62.6%
CCC(C)NC(=O)CS(=O)(=O)Cc1nc(-c2cccc(OC)c2)oc1C (stereo not drawn)	58.4%
O=C(COC(=O)c1cccnc1)Nc1cccc(Cl)c1	-16.7%
Cn1c(SCC(=O)NCc2cccs2)nnc1-c1ccc(S(=O)(=O)N2CCCC2)cc1	19.4%
O=C(CSc1nnc(CCCO)n1-c1ccccc1)NCCc1ccccc1	21.8%
CCOc1ccccc1N(CC(=O)Nc1ccccc1C(=O)O)S(C)(=O)=O	-7.4%
Cc1ccc(C)c(/C(O)=C2\C(=O)C(=O)N(CCCN(C)C)C2c2cccnc2)c1 (stereo not drawn)	-7.1%
CCC(C)NC(=O)Cn1c(=O)n(-c2ccccc2)c(=O)c2ccc(C(=O)NCc3ccco3)cc21 (stereo not drawn)	1.1%
COc1ccc(CC2S/C(=C(\C#N)C(=O)NCc3ccco3)N(c3ccc(C)cc3)C2=O)cc1 (stereo not drawn)	-4.3%
COc1ccc(Oc2ncc3nc(C)c(=O)n(C[C@H]4CCCO4)c3n2)cc1	69.0%
CNS(=O)(=O)c1cccc(C(=O)OCc2cc(Cl)cc3c2OCOC3)c1	-10.6%
CCCCN1CCc2c([nH]c3c(C)cccc23)C1=O	-6.1%
CC(C)OC12Oc3ccccc3C=C1N1CCC2CC1 (stereo not drawn)	15.0%
Cn1cccc1Cc1nnc(SCC(=O)NCc2ccco2)n1-c1ccc(F)cc1	56.9%
COCCNC(=O)CCSCc1ccccc1F	-6.3%
COc1ccc2c(C)cc(SCC(=O)N3CCOCC3)nc2c1	45.2%
COc1ccc(S(=O)(=O)N2CCN(c3c(C)cccc3C)CC2)cc1OC	72.4%

Fetched one by one from the list above:
SMILES	AmpC inh no det
CC(C)OC12Oc3ccccc3C=C1N1CCC2CC1 (stereo not drawn)	15.0%
Cc1ccc(C)c(/C(O)=C2\C(=O)C(=O)N(CCCN(C)C)C2c2cccnc2)c1 (stereo not drawn)	-7.1%
Cn1cccc1Cc1nnc(SCC(=O)NCc2ccco2)n1-c1ccc(F)cc1	56.9%
CCCCN1CCc2c([nH]c3c(C)cccc23)C1=O	-6.1%
COCCNC(=O)CCSCc1ccccc1F	-6.3%
COc1ccc2c(C)cc(SCC(=O)N3CCOCC3)nc2c1	45.2%

Next results follow.
SMILES	AmpC inh no det
CCOC(=O)c1ccc(N=C2NC(=O)CS2)cc1	-23.3%
CC1=C(C(=O)N2CCN(C(=O)c3ccco3)CC2)C2(CCC(C)CC2)OC1=O (stereo not drawn)	50.3%
CCN(c1ccc2c(c1)OCO2)S(=O)(=O)c1cc(Br)cc2c1N(C(=O)C1CC1)CC2	47.3%
COc1cccc(Nc2ncc3nc(-c4ccc(Cl)cc4)c(=O)n(C[C@H]4CCCO4)c3n2)c1	-3.4%
CN(C)c1ccc(C(=O)C(O)c2ccc(C(C)(C)C)cc2)cc1 (stereo not drawn)	7.7%
CCOC(=O)C1CCN(c2c(N3CCN(Cc4ccccc4)CC3)c(=O)c2=O)CC1	60.5%
COc1cccc(NC(=O)CN(C)S(=O)(=O)c2ccc(C)cc2)c1	4.9%
Clc1ccccc1-c1nccc(NCc2ccccc2)n1	7.8%
Clc1cccc2sc(N3CCOCC3)nc12	0.4%
CN(C)CCNc1c2c(c(C#N)c3nc4ccccc4n13)CCCC2	9.1%
CS(=O)(=O)c1ccc(N2CCN(C3CC(=O)NC3=O)CC2)cc1 (stereo not drawn)	-2.0%
CCc1ccc2oc(=O)cc(CN3CCN(CCO)CC3)c2c1	7.3%
CN1CCN(S(=O)(=O)c2ccc(-c3ccc(Cl)cc3)cc2)CC1	105.6%
CC1=C(C(=O)OCc2ccccc2)C(c2ccc(N3CCOCC3)cc2)NC(=O)N1 (stereo not drawn)	61.7%
CC(C)c1ccc(-c2nc3c([nH]2)c(=O)n(C)c(=O)n3C)cc1	80.7%
COc1ccc(-c2nc(-c3cccc(C(F)(F)F)c3)no2)cc1OC	6.3%
CCN(CC)c1ccc(CN(C(=O)c2cc(OC)c(OC)c(OC)c2)C2CCS(=O)(=O)C2)cc1 (stereo not drawn)	95.9%
COc1ccccc1N1CCN(C(=O)CSc2nnc3n2C(C)(C)Cc2ccccc2-3)CC1	121.6%
COc1cccc2oc(-c3ccc(O)cc3)cc(=O)c12	48.3%
N[C@]1(C(=O)O)CCc2cc(P(=O)(O)O)ccc21	8.4%
O=C(Nc1ccc(Cl)cn1)c1cc(S(=O)(=O)N2CCCCC2)ccc1Cl	-2.4%
CCOc1ccc(OCC)c(NS(=O)(=O)c2ccc3c(c2)n(C)c(=O)c(=O)n3C)c1	69.1%
CCOc1c2c(nc3ccc(Cl)cc13)CCC2	98.0%
CN[C@H](Cc1ccccc1)c1cccc(OC)c1O	1.9%[5.75 µM]
Cc1ccc2c(c1)N(CC(=O)NC1CCCc3ccccc31)C(=O)CO2 (stereo not drawn)	3.9%
COC(=O)C1=C(C(C)=O)C(c2ccc(C(=O)OC)cc2)n2nnnc2N1 (stereo not drawn)	-8.2%
Fc1ccc(NCc2cccnc2)cc1	-3.5%
CC(=O)Nc1ccn(-c2ccccc2)n1	-8.9%
C1=C(c2cccc3ccccc23)N2CCN=C2S1	-3.2%
COc1ccccc1N1CCN(C(=O)c2ccoc2C)CC1	27.1%
O=c1cc(N2CCN(c3ccccc3)CC2)[nH]c(=O)n1-c1ccccc1Cl	-9.1%
CCN(CC)CCn1c(=S)[nH]c2ccccc2c1=O	-15.1%
CCOC(=O)c1ccc(NS(=O)(=O)c2ccc3c(c2)CCCN3C(C)=O)cc1	31.6%
COc1cccc(-c2nc(CS(=O)CC(=O)N3CCC4(CC3)OCCO4)c(C)o2)c1 (stereo not drawn)	40.5%
c1ccc2c(Oc3ccc4c(c3)OCO4)nncc2c1	2.7%
CCCc1cc(=O)n2[nH]c(NCc3c(F)cccc3Cl)nc2n1	3.8%

The last 2 entries of the part before lead into the next.
SMILES	AmpC inh no det
c1ccc2c(Oc3ccc4c(c3)OCO4)nncc2c1	2.7%
CCCc1cc(=O)n2[nH]c(NCc3c(F)cccc3Cl)nc2n1	3.8%
COc1cccc(OC)c1C(=O)n1nc(C)cc1C	-7.5%
CCCCOC(=O)C1=C(C)NC2(O)c3ccccc3C(=O)C12O (stereo not drawn)	-18.4%
COC(=O)C1CCC(C)(C(=O)Nc2ccccc2)C1(C)C (stereo not drawn)	4.3%
c1cncc(-c2nc(N3CCNCC3)c3ccccc3n2)c1	14.4%
CCCCn1nnnc1SCC(=O)Nc1ccc(F)cc1	-9.1%
